Screening results from PubChem BioAssay.
RE007 growth inh: qHTS Assay for Inhibitors of the HIV-1 protein Vpr. AID 651644, 2012. actives 0.21% (n = 360,000). S. pombe RE007 Vpr strain, BacTiter-Glo ATP luminescence, 24 h; control for the full effect not named in the record. Potency, µM (titrated, usually from 92.2 µM), inactives show top-dose activity change, negative = less growth; active = well fitted falling curve with a large enough effect; inconclusive = small, poorly fitted or top-dose-only effect; inactive = no such curve, though single readings can be large or run the other way;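 also: % is scaled to controls: 0 for no effect and ±100 for the full control effect; nearly all actives have a fitted effect of over 50% in size; the assay follows cell death caused by Vpr and the record does not say whether a fall means rescue or toxicity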
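Fission yeast RE007 carrying one integrated HIV-1 vpr copy, seeded at OD 0.01 in PMG+AL medium with 23 nL pinned compound. Grown 24 h at 30 degrees; viability read by BacTiter-Glo luminescence after 5 min.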
NS1 inh: qHTS Assay for Inhibitors of Influenza NS1 Protein Function; S. cerevisiae slowed by influenza A NS1, growth recovery by OD600; Potency, µM (highest dose often 46.1 µM), for inactives: at the top dose activity, positive = more growth; actives 0.4% (n = 270,000); AID 2326, 2010; active means well fitted rising curve with a large enough effect; inconclusive means small, poorly fitted or top-dose-only effect; inactive means no such curve, though single readings can be large or run the other way; also: nearly all actives have a fitted effect of over 50% in size
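Recovery from NS1-induced slow growth read by OD600 in budding yeast switched to galactose assay medium (pH 6.0, -URA) at 1:100 dilution. Compound 23 nl per well; the matching strain lacking NS1 serves as control.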
SARS PLP yeast: qHTS of Yeast-based Assay for SARS-CoV PLP; actives 0.19% (n = 330,000); S. cerevisiae expressing SARS-CoV PLpro, growth rescue; control for the full effect not named in the record; Potency, µM (doses to about 32.9 µM), without a hit: at the highest dose activity, positive = growth rescue; active means well fitted rising curve with a large enough effect; inconclusive means small, poorly fitted or top-dose-only effect; inactive means no such curve, though single readings can be large or run the other way; also: 0% is about no effect; nearly all actives have a fitted effect of over 55% in size; growth read by luminescence after 48 h
Cruzain noTriton: qHTS Assay for Promiscuous and Specific Inhibitors of Cruzain (without detergent) | Cruzipain (Trypanosoma cruzi), P25779 | purified cruzain, Z-FR-AMC fluorescence, no detergent | Potency, µM, without a hit: max response, negative = inhibition, hits mostly inhibitors | actives 2.3% (n = 200,000);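 also: plate controls were enzyme without inhibitor for no effect and buffer without enzyme for full effect; nearly all actives have a fitted effect of over 40% in size; top concentration of the series not given in the record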
Target sequence (P25779 123-467 limits assumed): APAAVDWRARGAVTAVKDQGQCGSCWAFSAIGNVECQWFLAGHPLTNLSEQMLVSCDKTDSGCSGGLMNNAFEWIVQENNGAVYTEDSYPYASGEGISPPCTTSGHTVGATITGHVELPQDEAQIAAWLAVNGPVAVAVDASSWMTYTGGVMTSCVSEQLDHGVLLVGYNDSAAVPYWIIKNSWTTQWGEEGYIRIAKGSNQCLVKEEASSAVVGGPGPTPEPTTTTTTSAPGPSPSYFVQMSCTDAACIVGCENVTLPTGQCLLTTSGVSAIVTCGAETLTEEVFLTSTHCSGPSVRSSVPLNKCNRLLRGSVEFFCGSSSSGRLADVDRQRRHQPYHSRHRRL
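Detergent-free condition (0.00005% Triton X-100) in acetate buffer pH 5.5 with DTT. 1.5 nM enzyme and compound were pre-mixed 15 min, then 2 uM Z-FR-AMC substrate added; reaction progress from fluorescence change between first and third reads (60 s).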
StopGo reporter: High Throughput Screening for Foot and Mouth Disease Virus Antivirals | actives 1.2% (n = 410,000) | Potency, µM (doses to about 57.9 µM), for inactives: top-dose signal change, negative = less light | human cells with a luciferase reporter of 2A StopGo recoding; control for the full effect not named in the record | AID 1159524, 2015; active = well fitted falling curve with a large enough effect; inconclusive = small, poorly fitted or top-dose-only effect; inactive = no such curve, though single readings can be large or run the other way; tested in HEK293T cells; also: % is scaled to controls: 0 for no effect and ±100 for the full control effect; nearly all actives have a fitted effect of over 45% in size; luciferase light after 4 h
MARV entry inh: qHTS for inhibitors of binding or entry into cells for Marburg Virus; Marburg virus pseudotyped entry inhibition, cell reporter; control for the full effect not named in the record; about a third of the inactives were read at about 46 µM; Potency, µM (titrated, usually from 37.8 µM), without a hit: at the top dose activity change, negative = inhibition, usual class: inhibitors; actives 1.8% (n = 300,000); AID 540276, 2011; active = well fitted inhibition curve with a large enough effect; inconclusive = small, poorly fitted or top-dose-only effect, or effect the other way; inactive = flat fitted curve, though single readings scatter; tested in HEK293 cells; about a fifth of its hits are not listed in these tables; also: % is scaled to controls: 0 for no effect and ±100 for the full control effect; luciferase read-out
Lassa entry inh: qHTS for Inhibitors of binding or entry into cells for Lassa Virus; AID 540256, 2011; Potency, µM (highest dose often 37.9 µM), for the others: top-dose activity change, negative = inhibition, most hits filed as inhibitors; actives 1.2% (n = 300,000); Lassa virus pseudotype entry inhibition, cell reporter; control for the full effect not named in the record; active means well fitted inhibition curve with a large enough effect; inconclusive means small, poorly fitted or top-dose-only effect, or effect the other way; inactive means flat fitted curve, though single readings scatter; tested in HEK293 cells; also: % is scaled to controls: 0 for no effect and ±100 for the full control effect; nearly all actives have a fitted effect of over 50% in size; luciferase read-out
Cruzain inh Det: qHTS Assay for Promiscuous and Specific Inhibitors of Cruzain (with detergent) | Cruzipain (Trypanosoma cruzi), P25779 | purified cruzain, Z-FR-AMC fluorescence, 0.01% Triton | Potency, µM, inactives show max response, negative = inhibition, most hits filed as inhibitors | actives 0.43% (n = 200,000) | AID 1478, 2009;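 also: plate controls were neutral wells for no effect and buffer without enzyme for full effect; nearly all actives have a fitted effect of over 40% in size; top concentration of the series not given in the record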
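Purified cruzain (1.5 nM final) was preincubated with compounds for 15 min at room temperature in 100 mM sodium acetate pH 5.5, 5 mM DTT, 0.01% Triton X-100. Reaction started with 2 uM Z-FR-AMC; AMC fluorescence change over 60 s gave activity.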
An asterisk follows results filed as active; ? = inconclusive; / = not tested or not shown; & = joins results of further samples; [ ] = dose if it differs, or a comment. Unless noted, calls follow the shape of the dose curve; as a rule, active = well fitted curve in the direction sought with a large enough effect; inconclusive = small, poorly fitted or top-dose-only effect, or another doubt; inactive = no such curve, though single readings can be large; an effect the other way counts as inactive or inconclusive. Potency is read from the fitted curve at half-maximal effect.

#	SMILES	RE007 growth inh	NS1 inh	SARS PLP yeast	Cruzain noTriton	StopGo reporter	MARV entry inh	Lassa entry inh	Cruzain inh Det
1	COc1ccccc1NS(=O)(=O)c1ccc2oc(SC3CCOC3=O)nc2c1 (stereo unspecified)	6%	2%	0%	?	-2%	1%	1%	-3.7%
2	COc1ccccc1OCC(=O)NCC1CCCN(C(=O)c2ccccc2C(C)=O)C1 (stereo unspecified)	2%	-4%	3%	/	1%	-1%	3%	/
3	COc1ccc(/C=C/CN2CCN(CCc3ccccc3)C(CCO)C2)cc1 (stereo unspecified)	-3%	0%	0%	/	-12%	?	-17%[46.1 µM]	/
4	C=CCOc1ccc(/C=C2/C(=O)ON=C2C)cc1OCC	-12%	?	0%	/	?	-14%	-12%	/
5	O=C(c1ccc(CS(=O)c2ccccc2Cl)o1)N1CCN(c2ccccc2F)CC1 (stereo unspecified)	/	/	/	-3%	-23%	/	-13%[46.1 µM]	-3.9%
6	O=C(CC1CCC1)Nc1cccc2c([N+](=O)[O-])cccc12	-13%	/	/	/	-9%	-7%[46.1 µM]	-10%[46.1 µM]	/
7	CCOC(=O)C(=O)Nc1nnc(Cc2ccc(OC)c(OC)c2)s1	5%	1%	25%	7%	3%	-2%	17%	-0.6%
8	Cc1c(NC(=O)COC(=O)c2ccc(S(=O)(=O)N3CCOCC3)cc2)c(=O)n(-c2ccccc2)n1C	15%	/	0%	/	-17%	?	0%	/
9	Cc1cc(C)cc(NC(=O)Cc2csc(COc3cccc(C)c3)n2)c1	/	/	/	-12%	9%	6%[46.1 µM]	12%[46.1 µM]	-4.9%
10	CN(C)C(=O)c1ccc(NC(=O)COc2ccc([N+](=O)[O-])cc2)cc1	-9%	3%	1%	/	2%	-17%[46.1 µM]	10%	/
11	Cc1nn(CCO)c2ncc(C(=O)c3cc(F)ccc3O)cc12	-2%	4%	1%	/	0%	4%[46.1 µM]	/	/
12	Cc1c(C(=O)N2CCCCC2CCN2CCCC2=O)oc2c(F)cccc12 (stereo unspecified)	0%	-4%	1%	/	-3%	-1%	2%	/
13	CCCCNC(=O)c1sc2ncnc(N3CCc4ccccc4C3)c2c1C	-16%	-4%	-10%	4%	-12%	?	-2%	-1.8%
14	COc1ccc(C)c2sc(NC(=O)c3ccc(S(=O)(=O)N4CCOCC4)cc3)nc12	/	/	/	6%	-17%	/	?	1.9%
15	CNC(=O)COC(=O)c1cccnc1SC	21%	2%	-2%	11%	-17%	16%	8%	-0.1%
16	CCn1c2ccc(CC(=O)O)cc2c2cc(CC(=O)O)ccc21	15%	?	2%	-2%	3%	0%	0%	-2.5%
17	N#Cc1cc(F)c(N2CCNCC2)cc1Cl	4%	-5%	-1%	-4%	-2%	17%[46.1 µM]	4%	6.9%
18	Cc1ccc(S(=O)(=O)n2nc(-c3ccco3)nc2SCc2ccccc2)cc1	-1%	-33%	-24%	-6%	96%[activator]	-26%&3%	1%	2.8%
19	CC(=O)C1=C(c2ccc(Br)cc2)C(=O)c2ccccc2C1=O	?	-34%	-97%	-17%	3.2µM*	5.2µM*	2.5µM*	-6.5%
20	CCCCc1cc(=O)oc2c(C)c(OCC(=O)N3C[C@H]4C[C@@H](C3)c3cccc(=O)n3C4)ccc12	-3%	6%	5%	/	-1%	/	/	/
21	O=C(c1ccccc1)n1nc(-c2ccccc2)nc1NCc1ccco1	-9%	-134%	-11%	-8%	7%	/	/	-2.9%
22	COc1cccc(CC(CC(=O)O)C(=O)Nc2cc(C)ccc2C)c1 (stereo unspecified)	-5%	-10%	-2%	/	-3%	/	/	/
23	CCc1ccc2c(CN3CCN(S(=O)(=O)c4ccccc4F)CC3)cc(=O)oc2c1	14%	/	-11%	/	?	11µM*	?	/
24	O=C(CN1CCCCC1)Nc1ccc(S(=O)(=O)NC2CCCCC2)cc1	18%	2%	4%	-1%	23%	?	-15%	-2.9%
25	Cc1ccc(-c2c(C(=O)N/N=C/c3ccc(OC(C)C)cc3)nnn2-c2nonc2N)cc1	7%	9%	4%	/	-11%	/	/	/
26	COC(=O)Cn1c(=O)c2c(nc3n2CCCN3CCc2ccc(OC)c(OC)c2)n(C)c1=O	3%	2%	0%	/	?	/	/	/
27	S=C(NCCN1CCOCC1)Nc1ccc(Br)cc1	3%	3%	0%	-8%	-2%	?	?	-6.4%
28	c1ccc2c(c1)ccn2CCCN1CCCCC1	-15%	/	/	/	-16%	?	12%	/
29	O=C1COc2cc(S(=O)(=O)CCC(=O)N3CCN(c4cccc(Cl)c4)CC3)c(Cl)cc2N1	/	/	/	-30%	?	/	-7%[46.1 µM]	-2.0%
30	O=C(Nc1nnc(SCc2ccc(F)cc2)s1)c1ccccn1	?	/	-24%	/	-10%	?	?	/
31	CCC(=O)N/C(N)=N/c1nc(C)c2cc(C)c(C)cc2n1	-5%	-10%	0%	/	-15%	0%[46.1 µM]	-8%	/
32	CC(=O)c1sc(NC(=O)c2c(F)cccc2F)nc1-c1ccccc1	23%	/	-1%	/	25%	14%[46.1 µM]	5%[46.1 µM]	/
33	O=C(NC1CCCC1)C1CCN(C(=O)c2ccc(Cl)cc2)CC1	-12%	-6%	-1%	/	14%	-2%[46.1 µM]	7%[46.1 µM]	/
34	CCn1cc(C(=O)N2CCc3ccccc32)c(=O)c2cc(S(=O)(=O)N3CCOCC3)ccc21	13%	-2%	3%	23%	26%	17%	-7%	-2.5%
35	Cc1ccc(-n2nc(C(=O)N(C)c3ccccc3Cl)c3c4ccccc4n(C)c3c2=O)cc1	/	/	/	-17%	-12%	12%[46.1 µM]	-27%[46.1 µM]	-1.1%
36	COc1ccccc1C(=O)Nc1ccccc1OCc1cc(=O)n2ccccc2n1	/	/	/	-6%	2%	/	-9%[46.1 µM]	2.0%
37	Cc1cc(NC(=O)CSCCO)no1	-3%	-6%	0%	2%	9%	6%	-8%	3.1%
38	Cc1cccc(N2CCN(C(=O)COc3cccc4c3OC(C)(C)C4)CC2)c1C	-5%	-27%	-54%	-6%	?	0%	-23%	-11%
39	CCOC(=O)c1ccc(-c2ccc(CO)o2)cc1	-23%	-37%	-6%	-1%	19%	?	-8%	?
40	CC(C)Cc1cc(C(=O)NCc2ccco2)no1	5%	-31%	-1%	/	0%	/	/	/
41	COC(=O)c1cc(NC(=O)Cc2ccccc2[N+](=O)[O-])ccc1Cl	-9%	-5%	-7%	3%	-6%	?	24%	-6.1%
42	CCN(CC)P(=O)(Nc1ccc([N+](=O)[O-])cc1)c1c(C)nn(CCC#N)c1NC(=O)c1ccc(Cl)cc1 (stereo unspecified)	1%	-4%	3%	/	21%	9%[46.1 µM]	10%[46.1 µM]	/
43	O=C(CSc1ncn[nH]1)N1CCN(S(=O)(=O)c2ccccc2)CC1	19%	3%	-4%	-5%	6%	-4%	-8%	4.0%
44	CCOC(=O)C1=C(COC(=O)COc2ccc(C#N)cc2)NC(=O)NC1C (stereo unspecified)	31%	-2%	5%	/	-12%	17%	-10%	/
45	O=c1c2ccccc2ncn1-c1ccc2c(c1)OCCO2	4%	-1%	3%	0%	7%	1%	5%	6.1%
46	CN(C)/C=C/C(=O)c1cccc(C(F)(F)F)c1	-18%	/	-3%	/	41%[activator]	?	?	/
47	O=C(c1ccc(Sc2ccc(F)cc2)c([N+](=O)[O-])c1)N1CCOCC1	-8%	/	-5%	/	2%	-27%	?	/
48	Cc1ccc(C(=O)/C=C/c2cn(CC(O)CN3CCOCC3)c3ccccc23)cc1 (stereo unspecified)	-1%	9%	-1%	11%	?	?	-1%	-8.7%
49	Cc1c(C(=O)NC(C(C)C)C(C)C)cccc1[N+](=O)[O-]	7%	4%	-7%	2%	-11%	-5%	16%	-4.2%
50	COCCNC(=O)CN(C)S(=O)(=O)c1ccc2c(c1)OCCO2	24%	5%	9%	12%	-28%	-5%	-10%	3.0%
51	O=C(NCc1ccccc1)c1ccc2c(c1)C(=O)N(Cc1ccncc1)C2=O	6%	-10%	-5%	0%	-15%	9%	13%	2.9%
52	O/N=C1/CCCCC1c1ccccn1 (stereo unspecified)	2%	-9%	2%	-7%	-16%	?	17%	6.9%
53	COc1cc(C(=O)NC2CCCC2)c(Br)c(OC)c1OC	2%	2%	0%	/	-1%	17%[46.1 µM]	-18%[46.1 µM]	/
54	Cn1c(N)c(C(=O)COC(=O)c2cc(S(=O)(=O)N3CCOCC3)ccc2F)c(=O)n(C)c1=O	1%	/	-6%	/	-29%	7.1µM*	-29%	/
55	Cc1cc(Cl)ccc1NC(=S)NCCN1CCOCC1	5%	10%	2%	7%	-22%	-2%	-1%	0.8%
56	O=C(CCCn1c(=S)[nH]c2ccc(Br)cc2c1=O)NCc1ccccn1	0%	2%	6%	/	-18%	/	/	/
57	CCn1cc(CN2CCN(Cc3ccccc3)C(CCO)C2)c2ccccc21 (stereo unspecified)	-5%	7%	?	/	-3%	?	?	/
58	CC(C)[C@H](NC(=O)c1ccccc1)C(=O)OCC(=O)Nc1ccc(Cl)cc1C(F)(F)F	3%	-15%	8%	-2%	-10%	5%	6%	-3.2%
59	Cc1ccccc1OCCCCn1nnc2sc3c(c2c1=O)CCC(C)C3 (stereo unspecified)	/	/	/	4%	0%	0%[46.1 µM]	?	-0.5%
60	O=[N+]([O-])c1cc(/C=N/N2CCN(Cc3ccccc3)CC2)ccc1Cl	-6%	4%	-1%	/	7%	?	6%[46.1 µM]	/
61	O=C(OCc1cc2ccccc2[nH]c1=O)c1ccco1	-4%	-13%	2%	-7%	/	20%	-7%	-2.6%
62	Cc1ccc2nc(-c3ccccn3)cc(C(=O)NC(C)C(C)(C)C)c2c1 (stereo unspecified)	8%	0%	0%	/	-21%	?	5%	/

This is a random part of the collection; about 4.7% have a hit in one of these screens.
